High-throughput results: PubChem BioAssay, Sanford-Burnham Center for Chemical Genomics
MT1-MMP reporter: MT1-MMP gene expression reporter suppression – cell-based, luciferase reporter, luminescence (AID 618); calls from a first round at 10 µM; hits with a dose series show EC50 in µM; actives 0.62% (n = 87,000); MT1-MMP promoter luciferase reporter cells, luminescence;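 active means over half of the reporter light lost at 10 µM or EC50 under 50 µM; inactive means the rest and hits that failed the dose series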;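 further: actives suppress MT1-MMP promoter-driven transcription so potencies describe inhibitors; HT1080 fibrosarcoma cells; overnight exposure; toxic or luciferase-blocking compounds were not removed from the actives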
Calls only; i = inactive.

structure	MT1-MMP reporter
O=C(NCCc1ccc(Cl)cc1)C1CCC(=O)N1Cc1ccccc1Cl (stereo not given)	i
COC(=O)[C@@]1(Cc2ccc(F)cc2)[C@H]2c3cc(C(=O)N(C)C)n(CCc4ccc(O)c(O)c4)c3C[C@H]2CN1C(=O)c1ccccc1	i
C=CCn1c(Cc2ccc(OC)cc2)nnc1SCC(=O)NCCc1ccccc1	i
COC(=O)CC1Oc2cc3oc4c(c3cc2O1)C(=O)CC(C)(C)C4 (stereo not given)	i
CCOC(=O)C1=C(C)N(CCCCCC(=O)O)C(=O)NC1c1ccc([N+](=O)[O-])cc1 (stereo not given)	i
COC(=O)[C@@]1(Cc2ccc(OC)cc2)[C@H]2c3cc(C(=O)N4CCCC4)n(CCn4cc([N+](=O)[O-])nc4C)c3C[C@H]2CN1C(=O)c1ccccc1	i
CCOC(=O)C1=C(C)N(CCCC(=O)O)C(=O)NC1c1ccccc1OC(=O)c1cccs1 (stereo not given)	i
COC(=O)[C@@]1(Cc2ccc(F)cc2)[C@H]2c3cc(C(=O)N4CCCC4)n(CCc4ccc(O)c(O)c4)c3C[C@H]2CN1C(=O)c1ccccc1	i
O=C1CC(SCCO)C(=O)N1c1ccccc1 (stereo not given)	i
CCOC(=O)C1CCN(S(=O)(=O)c2ccc(Cl)cc2OC)CC1	i
O=C1C2C3C=CC(C4CC34)C2C(=O)N1/N=C/c1ccc(-c2ccc(Cl)cc2[N+](=O)[O-])o1 (stereo not given)	i
Cc1ccccc1C1NS(=O)(=O)N=C1N (stereo not given)	i
CCN(CC)CCOc1nnc(-c2ccc(C)cc2)c2ccccc12	i
CS(=O)(=O)N(Cc1ccc(Cl)cc1)c1ccc(C(=O)NCCC2=CCCCC2)cc1	i
Cc1ccc(C)n1N1C(=O)/C(=C\c2ccc(Cl)cc2)SC1=S	i
CC(=O)N1C2(C=CC1(C)C(=O)NCc1ccccn1)CCCCC2 (stereo not given)	i
CCOC(=O)CC(=O)Nc1ccc(C)cc1	i
COc1ccccc1NC(=O)C1=C(C)Nc2nc(-c3ccccc3)nn2C1c1ccccn1 (stereo not given)	i
NC(=S)Nc1nc2ccccc2[nH]c1=O	i
O=C(Cc1ccc(-n2c(=O)[nH]c3ccccc3c2=O)cc1)N1CCN(c2cccc(Cl)c2)CC1	i
CCC(C)NC(=O)c1cc2cc3ccc(OC)cc3nc2s1 (stereo not given)	i
C=CCn1c(SCCOc2ccccc2)nnc1C(C)NC(=O)c1ccccc1 (stereo not given)	i
CCN1C(=O)S/C(=C/c2ccsc2)C1=O	i
CCOc1ccc(S(=O)(=O)Nc2ccc(S(=O)(=O)N3CCCCC3)cc2)cc1	i
COC(=O)CNC(=O)C1(CC(C)C)C=CCN1C(=O)c1ccccc1 (stereo not given)	i
CC(C)CN(CC(C)C)C(=O)Cc1coc2ccc3ccccc3c12	i
CC(C)CC(=O)N/C(N)=N/c1nc2ccccc2s1	i
N#Cc1cc2c(nc1SCC(N)=O)CCCCC2	i
COC(=O)[C@@H]1C[C@@]2(O)[C@H](O)[C@H](O)[C@H](O)C[C@H]2N1Cc1cc(F)ccc1F	i
CCOC(=O)c1ccc(Oc2nc(NC)nc(Nc3ccccc3)n2)cc1	i
COc1ccc(C2=NOC(C(=O)NCc3ccccn3)C2)cc1OC (stereo not given)	i
CCOCCCNC(=O)c1ccc(CS(=O)(=O)Cc2ccccc2F)o1	i
O=C(O)c1ccccc1-c1ccccc1C(=O)NCCCO	i
Cc1cc(N2C(=O)CCC2=O)ccc1NC(=O)c1cccs1	i
Cc1ccc(-n2c(=O)c(C#N)cc3c(=O)n4ccccc4nc32)cc1C	i
O=C(O)CCc1ccc(-c2ccccc2)n1NC(=O)c1sc2ccccc2c1Cl	i
Cc1c(C#N)c2ccccc2n1CC(=O)NC(C)c1ccccc1 (stereo not given)	i
CC(C)OCCCNC(=O)C1CCC(=O)N1C1CCCC1 (stereo not given)	i
COC(=O)[C@@]1(Cc2ccc(F)cc2)[C@H]2c3cc(C(=O)N(C)C)n(Cc4ccc(OC)c(OC)c4)c3C[C@H]2CN1C(=O)c1ccccc1	i
C=C1c2cc(C)ccc2NC(=O)N1c1ccc(C)cc1	i
CCCc1ccc(OC(=O)c2cccs2)cc1	i
COc1ccc(-c2nc(Cc3ccc(Cl)cc3)no2)cc1OC	i
CCOC(=O)c1ccc(-n2c(C)nc3c(cnn3-c3ccccc3Cl)c2=O)cc1	i
Clc1ccc(-c2noc(CSc3nnc(-c4ccncc4)n3-c3ccccc3)n2)cc1	i
C=CCn1c(CSc2nc3ccccc3s2)nnc1SCC(=O)NCc1ccccc1	i
Cc1sc2ncnc(SCC(=O)c3ccc(Cl)s3)c2c1C	i
N/C(COc1cccc(C(F)(F)F)c1)=N\NC(=O)c1cccnc1Oc1ccccc1	i
C[C@]1(C(=O)NCc2cc(F)cc(C(F)(F)F)c2)C=C[C@@H](Cc2ccccc2)N1C(=O)c1ccccc1	i
CCCC/C=C/C(NC(=O)CCc1ccccc1)c1ccccc1 (stereo not given)	i
Fc1ccccc1N1CCN(CC2CC3C=CC2C3)CC1 (stereo not given)	i
C[C@@H](C(=O)Nc1ccc2ccccc2c1)[C@@H]1C[C@@]1(C)[C@@H](NC(=O)c1cccnc1)c1ccccc1	i
Cc1ccc(CC(=O)Nc2nc3ccccc3s2)cc1	i
CCOc1cc(S(=O)(=O)Nc2ccccc2CC)ccc1Cl	i
O=C(CCS(=O)(=O)Cc1ccc(Cl)cc1)NCCCN1CCN(c2ccccc2F)CC1	i
COC(=O)c1ccc(CN2[C@H](C(=O)OC)C[C@@]3(O)[C@@H](O)[C@@H](O)[C@@H](O)C[C@@H]23)cc1	i
CCC1=C(OC(=O)N(CC)CC)N2C(=O)OC(=NCC3CC3)[C@]2(Cc2ccccc2)[C@H]2C1=CC[C@H]1C(=O)N(CC)C(=O)[C@H]12	i

Other structures follow.
structure	MT1-MMP reporter
CCOC(=O)c1c(CN2CCOCC2)n(-c2ccccc2)c2cc(Br)c(O)cc12	i
COC(=O)[C@@]1(Cc2ccc(F)cc2)[C@H]2c3cc(C(=O)N(C)C)n(Cc4cccc5ccccc45)c3C[C@H]2CN1C(=O)c1ccccc1	i
O=S(=O)(/C=C/c1ccccc1)N1CCN(c2ccc(F)cc2)CC1	i
CCn1c(CC(=O)Nc2cccc(Cl)c2Cl)nnc1SCCOc1ccc(OC)cc1	i
Cc1cccc(C)c1NC(=O)CCS(=O)(=O)c1cccc2nsnc12	i
O=C(Nc1cc2ccccc2oc1=O)C1CCCCC1	i
O=[N+]([O-])c1cn(-c2nc(-c3ccco3)cc(C(F)(F)F)n2)cn1	i
C=CCNC1=C(Cl)C(=O)N(c2cccc(Cl)c2Cl)C1=O	i
CCc1nc(OCc2ccccc2)c2sc3nc4c(cc3c2n1)COC(C)(C)C4	i
Cn1nc(C(F)(F)F)c2cc(NC(=O)OCc3ccc(F)cc3)sc21	i
CCSc1nc2cc(OC)c(OC)cc2c(=O)n1CCc1ccccc1	i
CCCS(=O)(=O)c1c(S(=O)(=O)CCC)c2cnccn2c1C(=O)c1ccc(Cl)cc1	i
CN(c1ccc(C(=O)NCCc2ccccc2)cc1)S(C)(=O)=O	i
Cc1ccc(C(=O)CCNc2ccc(Cl)cc2)o1	i
CCOC(=O)N1CCN(C(=O)COc2ccc(S(=O)(=O)NCc3ccccc3)cc2)CC1	i
FC(F)(F)c1ccc(CN2C[C@@H]3C(c4ccc(C(F)(F)F)cc4)C4(c5ccccc5)CC3(C4)[C@H]2c2ccccc2)cc1 (stereo not given in full)	i
COc1cc(CO)ccc1Oc1nnnn1-c1ccc(C(N)=O)cc1	i
CCN(CC)CCCOc1ccc(C)cc1Br	i
CCCN(CCO)Cc1ccc(Br)cc1	i
CC(C)C(=O)N(c1cc2sc(=O)oc2c2ccccc12)S(=O)(=O)c1cccs1	i
CC(=O)Nc1ccc(N2CCCCC2)c(C(=O)Nc2cccc(C)c2)c1	i
CCn1c2ccccc2c2cc(NC(=O)C(C)C)ccc21	i
CC1CCCC(NC(=O)CCCn2c(=O)[nH]c3cc(Cl)ccc3c2=O)C1C (stereo not given)	i
CSc1ccc(C(=S)N2CCN(Cc3ccccc3)CC2)cc1	i

Some of these compounds in order of number of heavy atoms, falling.
structure	MT1-MMP reporter
CC(C)C(=O)N(c1cc2sc(=O)oc2c2ccccc12)S(=O)(=O)c1cccs1	i
CC1CCCC(NC(=O)CCCn2c(=O)[nH]c3cc(Cl)ccc3c2=O)C1C (stereo not given)	i
CCCN(CCO)Cc1ccc(Br)cc1	i

(listing goes on)
structure	MT1-MMP reporter
CCC1=C(OC(=O)N(CC)CC)N2C(=O)OC(=NCCOC)[C@]2(C)[C@H]2C1=CC[C@H]1C(=O)N(C)C(=O)[C@H]12	i
COC(=O)N1[C@H](C)C=C[C@]1(Cc1ccccc1)C(=O)NCCCNc1ncc(C(F)(F)F)cc1Cl	i
Cc1ccc(NC(=O)c2cc(-c3ccc(C)o3)nc3ccccc23)cc1	i
CC(=O)Cc1nsc(NC(=O)c2ccc(-c3ccc(Cl)cc3Cl)o2)n1	i
Cc1ccc(-c2n[nH]c3c2CCC3)cc1	i
O=C(Nc1ccc(F)cc1)c1cccc(NC(=O)C2C3CC4OC(=O)C2C4C3)c1 (stereo not given)	i
Cc1c(NS(=O)(=O)N2CCCCC2)c(=O)n(-c2ccccc2)n1C	i
CCCCCCN(C(=O)CCCCCN1C(=O)NC(c2ccc(C3CCCCC3)cc2)C(C(=O)OCc2ccccc2)=C1C)C(C(=O)NCCCC)c1ccc(OCC(=O)OC)c(C(=O)OC)c1 (stereo not given)	i

Quoted at random: two records from the list, in no set order.
structure	MT1-MMP reporter
CCN(CC)CCOc1nnc(-c2ccc(C)cc2)c2ccccc12	i
CCCN(CCO)Cc1ccc(Br)cc1	i

The list goes on.
structure	MT1-MMP reporter
COc1cc(-c2nnc(Sc3ccc(C(F)(F)F)cc3[N+](=O)[O-])o2)cc(OC)c1OC	i
CCOc1cc2[nH]c(=O)n(CCCCCC(=O)NCc3ccco3)c(=O)c2cc1OCC	i
CC(C)C(=O)N(c1ccc2oc(=O)sc2c1)S(=O)(=O)c1ccccc1	i
CCOc1cc(/C=C2/C(=N)N3OC(C)=CC3=NC2=O)ccc1OCCOc1ccccc1	i
COC(=O)[C@H]1C[C@@H]1[C@H](NC(=O)c1cc(C)nn1C)c1ccccc1	i
C=CCn1c(CSc2nc3ccccc3s2)n[nH]c1=S	i
COc1ccc(-c2cc(C(F)(F)F)nc(S(C)(=O)=O)n2)cc1	i
COCCNS(=O)(=O)c1ccc(F)c(OC)c1	i
CNC(=O)C1(C)C=CCN1C(=O)OC (stereo not given)	i
CCCCNC(=O)c1ccc2c(c1)ncn2C1CCCC1	i
COC(=O)Cn1c(SCc2ccccc2)nc2ccccc21	i
CCCN(CCC)C(=O)Cc1coc2ccc3ccccc3c12	i
COc1ccccc1C1(CC(=O)N2CCCCC2)CCOC(C(C)C)C1 (stereo not given)	i
CCN(CC)C(=O)CSC1=Nc2ccccc2C2=NC(c3ccccc3)C(=O)N12 (stereo not given)	i
COc1ccc(C2SCC(=O)N2C)cc1 (stereo not given)	i
COCCNC(=O)CCCCCn1c(=S)[nH]c2ccccc2c1=O	i
Cc1ccc(S(=O)(=O)N(CC(=O)NC2CCCCCC2)c2ccccc2F)cc1	i
Cc1cc(C)n(CC(O)Cn2c(C)c(C)c3ccccc32)n1 (stereo not given)	i
COC(=O)c1ccc(C(NC(=O)OCc2ccccc2)/C(=C/[C@@H](C)C(=O)N(C)Cc2ccccc2)C(F)(F)F)cc1 (stereo not given in full)	i
CCOC(=O)C1C(c2cccs2)NC(=O)N(C)C1(O)C(F)(F)F (stereo not given)	i
CN(CCCNC(=O)C1CCC(=O)N1Cc1ccccc1Cl)c1ccccc1 (stereo not given)	i
CCOC(=O)N1CCN(C(=O)CN(Cc2ccccc2)S(=O)(=O)c2ccc(OC)c(Cl)c2)CC1	i
CCN(CC)CCNC(=O)Cn1c(C)cc2ccccc2c1=O	i
CC(C)NC(=O)[C@@H]1C[C@H]1[C@@H](NC(=O)OCc1ccccc1)c1ccccc1	i
CC1CCN(C2CCN(S(=O)(=O)c3ccc(F)cc3)CC2)CC1	i
Cc1c(C#N)c2ccccc2n1CC(=O)N1CCCc2ccccc21	i
CCOc1ccccc1NC(=O)C(=O)/C=C(\O)c1cc(OC)ccc1OC	i
COc1ccc(CCNC(=S)Nc2ccccc2C)cc1	i
CC(=O)Nc1nonc1NC(=O)c1ccc(F)cc1	i
CC1CC(=O)c2cnc(N3CCOCC3)nc2C1 (stereo not given)	i
O=c1oc2ccccc2c2c1nc(C(F)(F)F)n2-c1ccccc1	i
COc1ccc(Cn2c(CCC(=O)Nc3ccc(C)cc3)nc3cccnc32)cc1	i
CC1(C)CC(=O)C(C2C3=C(CC(C)(C)CC3=O)Oc3ccccc32)=C(O)C1 (stereo not given)	i
Cc1c(NC(=O)CCSc2ccc(Cl)cc2)c(=O)n(-c2ccccc2)n1C	i
C=CCOC(=O)c1ccc(-n2cncn2)nc1	i
COc1ccc(C2N(S(=O)(=O)c3ccccc3)CCN2S(=O)(=O)c2ccc(C)cc2)cc1 (stereo not given)	i
Cc1cc(C(F)F)n2ncc(C(=O)NCCc3ccc(Cl)cc3)c2n1	i
CCC/C=C(\CCC)C(NC(=O)c1ccco1)c1ccc(C(=O)OC)cc1 (stereo not given)	i
Cc1c(Cl)cccc1N1C(=O)C(N2C(=O)c3cccc([N+](=O)[O-])c3C2=O)C1c1cccs1 (stereo not given)	i

Only part of the results is shown; the hit share may differ from the screen's.
